# Screening results deposited in PubChem BioAssay by Sanford-Burnham Center for Chemical Genomics.
# MT1-MMP reporter – MT1-MMP gene expression reporter suppression – cell-based, luciferase reporter, luminescence (AID 618) | MT1-MMP promoter luciferase reporter cells, luminescence | calls from a first round at 10 µM; hits with a dose series show EC50 in µM | 0.62% of 87,000 active;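 active = over half of the reporter light lost at 10 µM or EC50 under 50 µM; inactive = the rest and hits that failed the dose series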;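 note: actives suppress MT1-MMP promoter-driven transcription so potencies describe inhibitors; HT1080 fibrosarcoma cells; overnight exposure; toxic or luciferase-blocking compounds were not removed from the actives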
# * marks the source's active call; other numbers are inactive results; i = inactive. This is a subset; rates above refer to the full screens.
SMILES,MT1-MMP reporter
N#Cc1ccc(C23CC4(C2)[C@H](CN(Cc2ccc(-c5ccccc5)cc2)[C@@H]4c2ccccc2)C3c2ccccc2)cc1 (stereo not given in full),i
Cn1c(=O)c2c(ncn2CC(COCc2ccccc2Cl)OCc2ccccc2Cl)n(C)c1=O (stereo not given),i
CC(=O)c1ccc(NC(=O)C2CC(=O)N(Cc3ccccc3)C2)cc1 (stereo not given),i
CCOC(=O)c1ccc(N2C(=O)CC(N3CCCC(C)C3)C2=O)cc1 (stereo not given),i
CCSc1nc2c(sc3ccccc32)c(=O)n1C(C)C,i
Cc1ccc(CNC(=O)c2ccc(N3CCCC3=O)cc2)cc1,i
CC(C)(C)NC(=O)C(c1ccc(I)cc1)N(CCN1CCOCC1)C(=O)CCCNC(=O)c1ccccc1 (stereo not given),i
CCCOc1ccccc1N/C(=N/c1nc(C)cc(C)n1)NC(=O)COc1ccc(OC)cc1,i
O=C1C2C(c3ccccc3)C=CC(c3ccccc3)C2C(=O)N1C1CCCCC1 (stereo not given),i
Cc1ccc(CNC(=O)C2CCCN(C(=O)N(C)C)C2)cc1 (stereo not given),i
Cc1ccc(-c2ccc(CCC(=O)O)n2CC2CCCO2)cc1 (stereo not given),i
CCC1=C2CC[C@H]3C(=O)N(c4ccccc4)C(=O)[C@H]3[C@H]2[C@@]2(Cc3ccccc3)C(=NCCOC)OC(=O)N2C1=O,i
O=C(CSC1=Nc2ccccc2C2=NC(CC(=O)NCc3ccco3)C(=O)N12)NCc1ccco1 (stereo not given),i
CCN1C(=O)/C(=C\c2cccs2)C(C(=O)OC)=C1C,i
C=CCNC(=O)C1CC(=O)N(c2ccc(OCC(=O)Nc3ccc(Cl)c(C(F)(F)F)c3)cc2)C1 (stereo not given),i

# Overlap with the part before: five compounds, followed by the next part.
SMILES,MT1-MMP reporter
Cc1ccc(-c2ccc(CCC(=O)O)n2CC2CCCO2)cc1 (stereo not given),i
CCC1=C2CC[C@H]3C(=O)N(c4ccccc4)C(=O)[C@H]3[C@H]2[C@@]2(Cc3ccccc3)C(=NCCOC)OC(=O)N2C1=O,i
O=C(CSC1=Nc2ccccc2C2=NC(CC(=O)NCc3ccco3)C(=O)N12)NCc1ccco1 (stereo not given),i
CCN1C(=O)/C(=C\c2cccs2)C(C(=O)OC)=C1C,i
C=CCNC(=O)C1CC(=O)N(c2ccc(OCC(=O)Nc3ccc(Cl)c(C(F)(F)F)c3)cc2)C1 (stereo not given),i
COC(=O)[C@@]1(Cc2ccc(OC)cc2)[C@H]2c3cc(C(=O)N(C)C)n(Cc4ccc(C)o4)c3C[C@H]2CN1C(=O)c1ccccc1,i
Cc1ccccc1Cn1c(=O)n(CCCC(=O)NCc2ccco2)c(=O)c2sccc21,i
COC(=O)c1ccc(C(NC(=O)OCc2ccccc2)/C(C)=C/[C@@H](C)C(=O)NCc2cccnc2)cc1 (stereo not given in full),i
Cc1ccc(-c2nc3ncccc3o2)cc1NC(=O)COc1ccccc1,i
CC(Sc1nnc(-c2ccc(Cl)cc2Cl)n1Cc1ccccc1)C(=O)Nc1nccs1 (stereo not given),i
O=C(c1cccs1)N1CCN(c2ncccn2)CC1,i
Cc1ccc(C)c(N2CCN(C(=O)c3ccc4nc(-c5ccco5)c(-c5ccco5)nc4c3)CC2)c1,i
CC1=CC(C)=Nc2ccccc2N1,i
COc1ccc(C)cc1NC(=O)Nc1ccc(Br)cn1,i
CC(=O)Nc1cccc(NC(=O)CCc2ccccc2)c1,i
O=[N+]([O-])c1cc(Cl)cc(C2=NCCN2)c1,i
CC(C)CCN1C(=O)c2ccccc2C1C(=O)NCc1cccnc1 (stereo not given),i
Cc1ccccc1C(=O)N/N=C/c1ccc([N+](=O)[O-])s1,25.5µM*
COC(=O)c1ccc(C(NC(=O)OCc2ccccc2)/C(F)=C/[C@@H](C)C(=O)N[C@@H](CO)Cc2ccccc2)cc1 (stereo not given in full),i
COC(=O)c1cn(-c2ccccc2)nc1-c1ccccc1,i

# Part of the list above, as labelled records.
> COC(=O)[C@@]1(Cc2ccc(OC)cc2)[C@H]2c3cc(C(=O)N(C)C)n(Cc4ccc(C)o4)c3C[C@H]2CN1C(=O)c1ccccc1
  MT1-MMP reporter: i

> Cc1ccccc1Cn1c(=O)n(CCCC(=O)NCc2ccco2)c(=O)c2sccc21
  MT1-MMP reporter: i

> COC(=O)c1ccc(C(NC(=O)OCc2ccccc2)/C(C)=C/[C@@H](C)C(=O)NCc2cccnc2)cc1 (stereo not given in full)
  MT1-MMP reporter: i

> Cc1ccc(-c2nc3ncccc3o2)cc1NC(=O)COc1ccccc1
  MT1-MMP reporter: i

# (more compounds)
SMILES,MT1-MMP reporter
CCCc1cc2c(n1CCc1ccc(Cl)cc1)C(C)C1CN(C(=O)c3ccccc3)C(C)(C(=O)OC)C21 (stereo not given),i
Cn1nc(-c2ccccc2)c(COC(=O)c2cccc(Cl)c2)c1S(=O)(=O)c1ccccc1,i
CN1C[C@@H]2C(c3ccccc3)C3(c4cccnc4)CC2(C3)[C@H]1c1ccccc1 (stereo not given in full),i
Clc1ccc(Sc2ccc(/C=N/n3cnnc3)o2)cc1,i
CC1(c2ccccc2)CC(C)(C)N2C(=O)C3(C(C#N)=C(N)Oc4cc(O)ccc43)c3cccc1c32 (stereo not given),i
COc1ccc(N(C(=O)c2ccco2)S(=O)(=O)c2ccccc2)cc1,i
O=C(Nc1ccc2c(c1)nc1n2CCN(Cc2ccccc2)C1)NC1CCCCC1,i
CC(=O)Nc1ccc(NC(=O)CN(c2ccc(F)cc2)S(=O)(=O)c2ccc3c(c2)OCCO3)cc1,i
CCn1cc(C(=O)N2CCN(c3cccc(Cl)c3)CC2)c2cc(OC)c(OC)cc2c1=O,i
O=C1C=C(NCCO)C(=O)c2cnccc21,i
COc1ccc(Nc2nc(-c3cccs3)cs2)c(OC)c1,i
CC(C)OC(=O)CSc1nc2c(c(C3CC=CCC3)c1C#N)CCC2 (stereo not given),i
COc1ccc(NC(=O)C(C)Sc2ccccc2)cc1 (stereo not given),i
C[C@@H](C(=O)NCCc1c[nH]c2ccccc12)[C@@H]1C[C@@]1(C)[C@@H](NC(=O)OCc1ccccc1)c1ccccc1,i
CCC(NC(=O)c1ccccc1NC(=O)c1ccc(C)cc1)C(=O)O (stereo not given),i
CCC1CCCCN1CCCNC(=O)C1CCC(Cn2c(=O)[nH]c3ccccc3c2=O)CC1 (stereo not given),i
Cc1ccc(-c2[nH]nc3c2C(c2ccsc2)C(C#N)=C(N)O3)cc1 (stereo not given),i
CCCC1=C(C(=O)OCC)C(/C=C/c2ccccc2)n2ncnc2N1 (stereo not given),i
Cc1ccc(S(=O)(=O)N2CC3(C)CN(S(=O)(=O)c4ccc(C)cc4)CC(C)(C2)C3)cc1,i
COC(=O)c1c(C)[nH]c(C)c1-c1ccc(C)cc1,i
CCC1(CC)Cc2ccccc2-c2nc(-c3ccccc3)oc(=O)c21,i
COC(=O)c1cc(-c2ccccc2)n(CCNC(=O)CCCCCN2C(=O)NC(c3ccc(-c4ccccc4)cc3)C(C(=O)OCc3ccccc3)=C2C)c1C (stereo not given),i
CCSc1nnc(NC(=O)COc2ccc3ccccc3c2)s1,i
COC(=O)c1ccc(C(=O)OC)c(NC(=O)CSc2ccccn2)c1,i
O=C(N[C@@H](c1ccccc1)[C@@H]1C[C@H]1C(=O)O)OCc1ccccc1,i
CCCC[C@@H]1C[C@H]1C(NC(=O)Cc1ccccc1)c1ccc(Cl)cc1 (stereo not given in full),i
CC(C)(C)NC(=O)c1ccnc(C(C)(C)C)c1,i
CC(C)(C)c1ccc(C(=O)Nc2ccc(NC(=O)c3ccco3)cc2)cc1,i
Cc1ccc(-c2ccc(/C=N/N3C(=O)C4C5C=CC(C6CC56)C4C3=O)o2)c([N+](=O)[O-])c1 (stereo not given),i
COC(=O)c1ccc(C(NC(=O)OCc2ccccc2)/C(C)=C/[C@@H](C)C(=O)NCc2cc(C)on2)cc1 (stereo not given in full),i
COC(=O)c1ccc(C(/C=C/[C@@H](C)C(=O)NCCc2c[nH]c3ccccc23)NC(=O)OCc2ccccc2)cc1 (stereo not given in full),i
COC(=O)c1ccc(C(NC(=O)OCc2ccccc2)/C(F)=C/[C@@H](C)C(=O)NCCN2CCOCC2)cc1 (stereo not given in full),i
COC(=O)c1ccc(C23CC4(C2)[C@H](CN(Cc2ccc(-c5ccccc5)cc2)[C@@H]4c2ccccc2)C3c2ccc(C(F)(F)F)cc2)cc1 (stereo not given in full),i
C=CC(=O)Nc1ccc(Br)cc1,i
CCOC(=O)C1=C(COc2ccccc2)NC(=O)NC1c1ccc2ccccc2c1 (stereo not given),i
CC(=O)N1C2(C=CC1(C)C(=O)NCCN1CCOCC1)CCCCC2 (stereo not given),i
COC(=O)c1cccc(NS(C)(=O)=O)c1C,i
Cc1[nH]n(-c2ccccc2)c(=O)c1C1(C(F)(F)F)C(=O)N(c2ccccc2)C2=C1C(=O)CC(C)(C)C2 (stereo not given),i
CCCCCC1=C2CNC(Cc3ccccc3)(C(=O)OC)C=C2C(C)C1=O (stereo not given),i
Cc1cc(C)c(S(=O)(=O)c2ccccc2)c(OC(=O)c2cc(F)c(F)cc2Cl)n1,i
COC(=O)[C@@]1(Cc2ccccc2)[C@H]2c3cc(C(=O)N4CCCC4)n(CCO)c3C[C@H]2CN1C(=O)c1ccccc1,i
CCOc1ccccc1CNC(=O)c1cc2oc3ccccc3c2n1C,i
COC(=O)[C@@]1(Cc2ccc(F)cc2)[C@H]2c3cc(C(=O)N4CCCC4)n(Cc4ccc(Cl)c(C(F)(F)F)c4)c3C[C@H]2CN1C(=O)c1ccccc1,i
Cc1ccc(S(=O)(=O)N(C)c2ccc(C(=O)NCC3CCCO3)cc2)cc1 (stereo not given),i
Cc1ccc(C(=O)Nc2ccon2)cc1S(=O)(=O)N1CCOCC1,i
COc1ccc(NC(=S)NCCc2ccccc2OC)c(OC)c1,i
Cc1ccc(CNC(=O)[C@H](C)[C@@H]2C[C@@]2(C)[C@@H](NC(=O)OCc2ccccc2)c2ccccc2)c(F)c1F,i
COc1ccc(CCNC(=O)c2nnn(-c3cccc(C)c3)c2N)cc1OC,i
CC1CC(C)CN(C(=O)c2ccc3c(c2NCCO)C(=O)c2ccccc2C3=O)C1 (stereo not given),i
COC(=O)[C@@]1(Cc2ccc(OC)cc2)[C@H]2c3cc(C(=O)N(C)C)n(Cc4cc(F)c(F)c(F)c4)c3C[C@H]2CN1C(=O)c1ccccc1,i
Cc1ccc(C(c2ccc(C)o2)c2cccc([N+](=O)[O-])c2O)o1,i
CCOC(=O)C1=C(C)N(CCCCCC(=O)O)C(=O)NC1c1ccccc1OC(=O)c1cccs1 (stereo not given),i
COc1ccc(-n2nc(C(=O)NCC(=O)Nc3cccc(C)n3)c3ccccc3c2=O)cc1,i
CC(C)CNS(=O)(=O)c1ccc(CCC(=O)NCc2cccnc2)cc1,i
CSc1ccccc1C(=O)NC1CCCCC1,i
COC(=O)c1ccc(C(NC(=O)c2ccco2)[C@]2(C)C[C@H]2C2CCCCC2)cc1 (stereo not given in full),i
Cc1c(-n2c(=S)[nH]c3ccccc3c2=O)c(=O)n(-c2ccccc2)n1C,i
CCOC(=O)N1CCN(c2nc(-c3cccs3)cc(C(F)(F)F)n2)CC1,i
C[C@@H](C(=O)NCCF)[C@H]1C[C@]1(C)[C@H](NC(=O)OCc1ccccc1)c1ccccc1,i
COC(=O)[C@@]1(Cc2ccc(F)cc2)[C@H]2c3cc(C(=O)N4CCCC4)n(Cc4c(CO)[nH]cc(C)c4=O)c3C[C@H]2CN1C(=O)c1ccccc1,i

# Continued.
SMILES,MT1-MMP reporter
O=C(NC(=O)c1ccncc1)NC(c1ccccc1)c1ccccc1,i
CCC(Sc1nc2ccccc2c2nc3ccccc3n12)C(=O)NCc1ccco1 (stereo not given),i
O=C(O)[C@H]1CCCC[C@H]1C(=O)NCCc1ccccc1,i
CN(C)c1ccc(C=Nc2ccccc2)cc1,i
CC1=C(C(=O)Nc2cccnc2)C(c2ccc3c(c2)OCO3)C2=C(CCCC2=O)N1 (stereo not given),i
CN1C[C@@H]2C(c3ccc(C(F)(F)F)cc3)C3(c4ccccc4)CC2(C3)[C@H]1c1ccccc1 (stereo not given in full),i
C[C@@H](C(=O)NCC1CC1)[C@@H]1C[C@@]1(C)[C@@H](NC(=O)OCc1ccccc1)c1ccccc1,i
FC(F)(F)c1ccc(C2[C@H]3CN(Cc4ccc(-c5ccccc5)cc4)[C@H](c4ccccc4)C34CC2(c2cccnc2)C4)cc1 (stereo not given in full),i
COc1ccc(-c2nn(-c3ccccc3)cc2CO)cc1,i
CC(Cc1ccccc1)C(=O)NCc1nc2ccccc2s1 (stereo not given),i
COc1cccc(NC(=O)Nc2ccc3c(c2)N(C)C(=O)CS3)c1,i
COC(=O)/C(C(C)=O)=C(/C=C/C=C/N(C)C)N(C)C,i

# Some of these compounds in order of number of heavy atoms, rising:
SMILES,MT1-MMP reporter
C=CC(=O)Nc1ccc(Br)cc1,i
Cc1ccc(S(=O)(=O)N(C)c2ccc(C(=O)NCC3CCCO3)cc2)cc1 (stereo not given),i
CN1C[C@@H]2C(c3ccccc3)C3(c4cccnc4)CC2(C3)[C@H]1c1ccccc1 (stereo not given in full),i
Cc1cc(C)c(S(=O)(=O)c2ccccc2)c(OC(=O)c2cc(F)c(F)cc2Cl)n1,i
O=C(CSC1=Nc2ccccc2C2=NC(CC(=O)NCc3ccco3)C(=O)N12)NCc1ccco1 (stereo not given),i
Cc1ccc(CNC(=O)[C@H](C)[C@@H]2C[C@@]2(C)[C@@H](NC(=O)OCc2ccccc2)c2ccccc2)c(F)c1F,i
